Screens as filed in PubChem.
Ecoli rRNA inh: selective bacterial rRNA inhibition in E. coli; E. coli WT GFP vs humanized-ribosome RFP mutants, fluorescence, 24 h; hits give low values; DMSO median 0, no signal -100; GFP signal change (wild-type ribosome), % (no concentration beside the values); 350,000 tested, 1.6% active; AID 720706;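 active = significant combined selectivity score with lowered wild-type GFP, culture density cut under 30%, mutant RFP and density less affected; inactive = any of these conditions unmet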; also: one replicate is shown; some compounds called inactive have numbers as strong as hits
Ecoli rRNA inh OD600: further read-out of Ecoli rRNA inh, marked with its call; OD600 change, %; measured here: OD600 growth;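 optical density of the mix in the first replicate; 0 = DMSO median and -100 = no signal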
Ecoli rRNA inh RFP: further read-out of Ecoli rRNA inh, marked with its call; RFP signal change, %; measured here: RFP humanized mutant strains;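 first replicate; 0 = DMSO median and -100 = no signal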
* marks the source's active call; other numbers are inactive results. Some of the compounds tested, so the mix of outcomes need not match the whole.

SMILES	Ecoli rRNA inh	Ecoli rRNA inh OD600	Ecoli rRNA inh RFP
COc1cccc(C#Cc2cnc3c(c2)C(=O)N([C@H](C)CO)C[C@H](C)[C@H](CN(C)C(C)=O)O3)c1	4	1	-2.5
CNC[C@@H]1Oc2ccc(NS(=O)(=O)c3cccs3)cc2CC(=O)N([C@@H](C)CO)C[C@@H]1C	2	6	1.1
O=C(C[C@@H]1C=C[C@H](NC(=O)Nc2cc(F)ccc2F)[C@H](CO)O1)NCc1ccc2c(c1)OCO2	-4	-2	-2.2
O=C(C[C@@H]1C[C@H]2c3cc(NC(=O)NC4CCCC4)ccc3O[C@H]2[C@H](CO)O1)NC1CCCC1	-4	-3	-1.9
C[C@H](CO)N1C[C@H](C)[C@@H](CN(C)C(=O)CCCN(C)C)OCCCC[C@H](C)Oc2ccc(NC(=O)Cc3ccccc3)cc2C1=O	2	4	-0.7
C[C@@H]1CN([C@@H](C)CO)C(=O)c2cc(C#Cc3ccc(F)cc3)cnc2O[C@@H]1CN(C)C	-3	-1	2.0
C[C@H](CO)N1C[C@H](C)[C@H](CN(C)CC2CCOCC2)Oc2ncc(-c3cccc(F)c3)cc2C1=O	5	8	-0.7
O=C(Nc1ccccc1F)N[C@H]1CC[C@H](CC(=O)N2CCCCC2)O[C@H]1CO	1	11	-1.6
Cc1ccc(S(=O)(=O)N(C)C[C@H]2Oc3ccc(NS(=O)(=O)c4ccc(Cl)cc4)cc3CC(=O)N([C@H](C)CO)C[C@H]2C)cc1	0	-4	-0.3
Cc1ccccc1-c1cnc2c(c1)C(=O)N([C@@H](C)CO)C[C@H](C)[C@@H](CN(C)CC1CCOCC1)O2	4	11	-2.9
O=C(C[C@H]1C[C@@H]2c3cc(NC(=O)C4CCC4)ccc3O[C@@H]2[C@H](CO)O1)NCC(F)(F)F	2	12	-3.5
C[C@@H]1CN([C@@H](C)CO)C(=O)c2cc(-c3ccc(C#N)cc3)cnc2O[C@H]1CN(C)C(=O)Nc1ccc(F)cc1	-4	3	-0.6
COc1ccccc1-c1ccc2c(c1)O[C@@H](CN(C)CC1CCOCC1)[C@@H](C)CN([C@H](C)CO)S2(=O)=O	-1	5	0.1
CO[C@H]1CN(C)C(=O)c2cc(NC(C)=O)ccc2OC[C@H](C)N(CCc2ccccc2)C[C@H]1C	1	4	-1.1
CCCC(=O)Nc1ccc2c(c1)C(=O)N(C)[C@H]1CC[C@H](CC(=O)NCC(F)(F)F)O[C@H]1CO2	0	-1	-0.7
CN1C[C@H](O)COC[C@H]2O[C@H](CC(=O)NC3CCCC3)CC[C@@H]21	2	4	-1.2
CC1CC(C)CN(S(=O)(=O)c2ccc(F)c(C(=O)NC3CCCCC3C)c2)C1 (stereo unspecified)	11	18	-1.8
C[C@@H]1CN([C@H](C)CO)S(=O)(=O)c2ccc(C#C[C@@H](C)O)cc2O[C@@H]1CN(C)Cc1ccccn1	1	14	0.2
C[C@@H]1CN([C@H](C)CO)C(=O)c2cc(NC(=O)Nc3cccc4ccccc34)ccc2O[C@@H](C)CCCCO[C@@H]1CN(C)C(=O)NC1CCCCC1	-3	2	-1.5
COCc1cc(N2CCN(C(=O)OC(C)(C)C)C[C@H]2C)ccc1N1CC[C@@H](O)C1	-3	2	1.4

A run of entries from the list above:
SMILES	Ecoli rRNA inh	Ecoli rRNA inh OD600	Ecoli rRNA inh RFP
COc1cccc(C#Cc2cnc3c(c2)C(=O)N([C@H](C)CO)C[C@H](C)[C@H](CN(C)C(C)=O)O3)c1	4	1	-2.5
CNC[C@@H]1Oc2ccc(NS(=O)(=O)c3cccs3)cc2CC(=O)N([C@@H](C)CO)C[C@@H]1C	2	6	1.1
O=C(C[C@@H]1C=C[C@H](NC(=O)Nc2cc(F)ccc2F)[C@H](CO)O1)NCc1ccc2c(c1)OCO2	-4	-2	-2.2
O=C(C[C@@H]1C[C@H]2c3cc(NC(=O)NC4CCCC4)ccc3O[C@H]2[C@H](CO)O1)NC1CCCC1	-4	-3	-1.9
C[C@H](CO)N1C[C@H](C)[C@@H](CN(C)C(=O)CCCN(C)C)OCCCC[C@H](C)Oc2ccc(NC(=O)Cc3ccccc3)cc2C1=O	2	4	-0.7
C[C@@H]1CN([C@@H](C)CO)C(=O)c2cc(C#Cc3ccc(F)cc3)cnc2O[C@@H]1CN(C)C	-3	-1	2.0
C[C@H](CO)N1C[C@H](C)[C@H](CN(C)CC2CCOCC2)Oc2ncc(-c3cccc(F)c3)cc2C1=O	5	8	-0.7
O=C(Nc1ccccc1F)N[C@H]1CC[C@H](CC(=O)N2CCCCC2)O[C@H]1CO	1	11	-1.6
Cc1ccc(S(=O)(=O)N(C)C[C@H]2Oc3ccc(NS(=O)(=O)c4ccc(Cl)cc4)cc3CC(=O)N([C@H](C)CO)C[C@H]2C)cc1	0	-4	-0.3
Cc1ccccc1-c1cnc2c(c1)C(=O)N([C@@H](C)CO)C[C@H](C)[C@@H](CN(C)CC1CCOCC1)O2	4	11	-2.9
O=C(C[C@H]1C[C@@H]2c3cc(NC(=O)C4CCC4)ccc3O[C@@H]2[C@H](CO)O1)NCC(F)(F)F	2	12	-3.5
C[C@@H]1CN([C@@H](C)CO)C(=O)c2cc(-c3ccc(C#N)cc3)cnc2O[C@H]1CN(C)C(=O)Nc1ccc(F)cc1	-4	3	-0.6
COc1ccccc1-c1ccc2c(c1)O[C@@H](CN(C)CC1CCOCC1)[C@@H](C)CN([C@H](C)CO)S2(=O)=O	-1	5	0.1
CO[C@H]1CN(C)C(=O)c2cc(NC(C)=O)ccc2OC[C@H](C)N(CCc2ccccc2)C[C@H]1C	1	4	-1.1
CCCC(=O)Nc1ccc2c(c1)C(=O)N(C)[C@H]1CC[C@H](CC(=O)NCC(F)(F)F)O[C@H]1CO2	0	-1	-0.7
CN1C[C@H](O)COC[C@H]2O[C@H](CC(=O)NC3CCCC3)CC[C@@H]21	2	4	-1.2
CC1CC(C)CN(S(=O)(=O)c2ccc(F)c(C(=O)NC3CCCCC3C)c2)C1 (stereo unspecified)	11	18	-1.8
C[C@@H]1CN([C@H](C)CO)S(=O)(=O)c2ccc(C#C[C@@H](C)O)cc2O[C@@H]1CN(C)Cc1ccccn1	1	14	0.2
C[C@@H]1CN([C@H](C)CO)C(=O)c2cc(NC(=O)Nc3cccc4ccccc34)ccc2O[C@@H](C)CCCCO[C@@H]1CN(C)C(=O)NC1CCCCC1	-3	2	-1.5
COCc1cc(N2CCN(C(=O)OC(C)(C)C)C[C@H]2C)ccc1N1CC[C@@H](O)C1	-3	2	1.4

New compounds follow.
SMILES	Ecoli rRNA inh	Ecoli rRNA inh OD600	Ecoli rRNA inh RFP
C[C@H](CO)N1C[C@H](C)[C@H](CN(C)S(=O)(=O)c2cn(C)cn2)Oc2ccc(NC(=O)CCCN(C)C)cc2CC1=O	4	3	-0.3
Cc1ccc(S(=O)(=O)Nc2ccc3c(c2)C(=O)N(C)[C@@H]2CC[C@@H](CC(=O)NCCc4ccncc4)O[C@H]2CO3)cc1	-1	11	-0.5
CC(C)N1C(=O)NC2NC(=O)N(C(C)C)C21 (stereo unspecified)	11	8	1.5
C[C@H](CO)N1C[C@H](C)[C@@H](CN(C)C(=O)Nc2ccc3c(c2)OCO3)Oc2c(NC(=O)CCCCCC(=O)Nc3ccccc3N)cccc2C1=O	2	13	-2.8
O=C(C[C@H]1C=C[C@@H](NC(=O)Nc2cc(F)ccc2F)[C@H](CO)O1)NCc1ccc2c(c1)OCO2	-3	-5	-1.0
C[C@H](CO)N1C[C@H](C)[C@H](CN(C)Cc2ccc(C(=O)Nc3ccccc3N)cc2)Oc2ccc(NC(=O)Cc3ccccc3)cc2C1=O	1	-2	0.3
O=C(C[C@@H]1CC[C@@H](NC(=O)c2ccncc2)[C@@H](CO)O1)NCC1CC1	6	6	2.4
CC1(C(=O)NS(=O)(=O)c2cccc(Cl)c2)CCN1C(=O)Cc1ccc(Cl)cc1Cl (stereo unspecified)	-1	-7	0.8
C[C@@H]1CN([C@H](C)CO)C(=O)c2cccc(NC(=O)c3cnccn3)c2O[C@@H]1CN(C)S(=O)(=O)c1cn(C)cn1	0	-3	-2.9
C[C@H](CO)N1C[C@H](C)[C@H](CN(C)Cc2cccc3c2OCCCO3)OCc2cn(nn2)CCCC1=O	2	1	-1.0
CCCC(=O)N1CCC1(C)C(=O)Nc1ccc(-n2cncn2)cc1 (stereo unspecified)	4	3	-1.1
O=C(C[C@H]1CC[C@@H](NC(=O)c2ccccc2)[C@@H](CO)O1)NCc1ccncn1	1	2	-1.2
O=C(O)CCC1C(=O)NC(=O)CC1c1ccccc1 (stereo unspecified)	15	13	-1.0
CCCCCc1c(-c2ccccc2OC)ncn1CCc1ccccc1OC	-30	-81	-22
COc1cc(C=C2CCCC(=Cc3ccc(OCC4CO4)c(OC)c3)C2=O)ccc1OCC1CO1 (stereo unspecified)	-32	-28	12
COCC(=O)Nc1ccc2c(c1)[C@@H]1C[C@@H](CC(=O)O)O[C@H](CO)[C@@H]1O2	-1	-1	-1.5
CC(C)OC1=CC(=O)OC(c2cccc(Cl)c2)C1 (stereo unspecified)	6	9	-0.5
O=C(C[C@H]1CC[C@@H]2NC[C@H](O)COC[C@H]2O1)Nc1ccccc1	6	15	-2.7
O=C(C[C@H]1C=C[C@H](NC(=O)C2CCC2)[C@H](CO)O1)NC1CCCCC1	0	11	-1.6
CN(C)Cc1cn(CC[C@@H]2CC[C@@H](NC(=O)Nc3ccc4c(c3)OCO4)[C@@H](CO)O2)nn1	-1	-5	-1.0

The final two records of the part above come first, to join the parts.
SMILES	Ecoli rRNA inh	Ecoli rRNA inh OD600	Ecoli rRNA inh RFP
O=C(C[C@H]1C=C[C@H](NC(=O)C2CCC2)[C@H](CO)O1)NC1CCCCC1	0	11	-1.6
CN(C)Cc1cn(CC[C@@H]2CC[C@@H](NC(=O)Nc3ccc4c(c3)OCO4)[C@@H](CO)O2)nn1	-1	-5	-1.0
Cc1ccc2c(c1)CO[C@]21O[C@H](CCO)C[C@H](O)[C@H]1O	6	4	-1.9
C[C@H](CO)N1C[C@H](C)[C@@H](CN(C)Cc2ccccc2)OCCCC[C@H](C)Oc2ccc(NS(=O)(=O)c3ccccc3)cc2C1=O	-2	-2	2.3
O=C(Nc1ccc(F)cc1)N1CC(=O)N2[C@H](CO)[C@H](c3ccc(-c4ccccc4)cc3)[C@H]2C1	-8	-41	20
Cc1ccc([C@@H]2CC(=O)[C@@H]3CN(S(=O)(=O)c4ccc(C)cc4)[C@H](c4cccc(Cl)c4)C[C@@H]3N2S(=O)(=O)c2ccc(Cl)cc2)cc1	10	14	0.0
O=C(N[C@@H]1CC[C@@H](CC(=O)N2CCCCC2)O[C@H]1CO)c1ccc2c(c1)OCO2	1	5	-3.4
O=C(CC[C@H]1O[C@@H](n2cnc3c(NC(=O)c4ccccc4)ncnc32)[C@H](O)[C@@H]1O)NCc1ccc(OC(F)(F)F)cc1	2	-1	-0.1
CO[C@H]1CN(C)C(=O)c2cc(NS(C)(=O)=O)ccc2OC[C@@H](C)N(C(=O)C2CCC2)C[C@@H]1C	2	4	-1.0
C[C@@H]1CN([C@H](C)CO)C(=O)c2cc(-c3cccc(C(=O)N(C)C)c3)cnc2O[C@H]1CN(C)S(=O)(=O)c1cccc(F)c1	-7	0	-3.3
O=C(Cc1cccc2c(=O)cc(-c3ccccc3)oc12)OCCN1CCOCC1	-8	-9	-2.1
COc1ccc(NC(=O)Nc2ccc3c(c2)C(=O)N([C@H](C)CO)C[C@H](C)[C@@H](CN(C)Cc2ccc4c(c2)OCO4)OCCCC[C@H](C)O3)cc1	-13	-50	25
COc1ccc2c3c(n(C)c2c1)[C@H](CO)NCC31CN(CC2CC2)C1	5	8	-0.9
CO[C@@H]1CC[C@@H]2CCOc3ccc(C#N)cc3C(=O)N(C)C[C@H](c3ccccc3)CC(=O)N(C)C[C@H]1O2	-1	1	-1.2
Cn1cnc(S(=O)(=O)N2CC[C@@H]3[C@H]2c2cc(C4=CCCCC4)ccc2N[C@@H]3CO)c1	-2	5	-3.0
CNC[C@H]1OCCCC[C@H](C)Oc2ccc(N)cc2C(=O)N([C@H](C)CO)C[C@@H]1C	5	3	-2.0
COc1cccc(CNC(=O)C[C@H]2C=C[C@@H](NC(=O)C3CCOCC3)[C@@H](CO)O2)c1	0	-1	0.6
COc1cccc(S(=O)(=O)Nc2ccc3c(c2)C(=O)N(C)[C@@H]2CC[C@H](CC(=O)NCC4CCCCC4)O[C@@H]2CO3)c1	-5	-11	2.6
CCn1nc(C(=O)Nc2ccc3c(c2)OCCO3)c2ccccc2c1=O	2	-8	-2.8
C[C@@H]1CN([C@@H](C)CO)C(=O)c2cc(NC(=O)Nc3ccc(C(F)(F)F)cc3)ccc2O[C@@H]1CN(C)S(=O)(=O)c1ccccc1	0	-7	-2.0
CCC(=O)N1[C@@H]2c3ccc(-c4ccccc4)c(=O)n3C[C@@H]2[C@@H](CO)[C@@H]1C(=O)N(C)C	3	6	-1.7
C[C@@H]1CN([C@H](C)CO)C(=O)Cc2cc(NS(=O)(=O)c3cccs3)ccc2O[C@@H]1CN(C)C(=O)Nc1ccc(C(F)(F)F)cc1	4	-5	0.5
C[C@H](O)C#Cc1cnc2c(c1)C(=O)N([C@@H](C)CO)C[C@H](C)[C@H](CN(C)C(=O)CN1CCOCC1)O2	6	13	-3.5
Cc1ccc2nc(-c3cccc(Cl)c3)c(Cc3ccccc3)n2c1	-16	-34	11
CCC(=O)N1[C@@H](CO)[C@@H]2c3ccccc3N(C(=O)c3ccc4c(c3)OCO4)C[C@@H]21	6	17	-2.1
